BJeLR lethal: BJeLR cell viability loss; BJeLR (HRASV12) viability, CellTiter-Glo ATP luminescence, 48 h; reference of the scale not given here; inhibition, % (no concentration beside the values); 300,000 tested, 0.17% active;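 active = replicate mean above 50%; inconclusive = above 50% but judged a plate artefact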;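 note: 50 nL library stock added to about 25 µL; numbers are from one replicate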
Sa RN4220 lethal: S. aureus RN4220 growth inhibition; OD600, 16 h; inhibition, % (no concentration beside the values); 330,000 tested, 0.33% active;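 active = z-score of -3 or lower and OD600 up to 0.18 on both plates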;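 note: plate controls were untreated cells for no effect and reference antibiotic for full effect; stock transfer was 100 nL into about 80 µL; one replicate is shown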
PrP UTR inh: inhibition of PrP 5' UTR reporter expression | cell-based PrP 5' UTR mRNA reporter, plate reader | 340,000 tested, 0.35% active | inhibition, % (no concentration beside the values);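 active = every replicate at 50% or more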;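 note: 0 = median of the neutral control wells; tested in H4 reporter cells; numbers are from one replicate; inactives centre near -14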
ugtP null kill: kills S. aureus RN4220 lacking UgtP; S. aureus RN4220 ugtP deletion, OD600 growth, 16 h; some inactives read as strong as hits; growth inhibition, % (test concentration not listed); 330,000 tested, 0.54% active; AID 1259309;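 active = z-score under -3 and OD600 up to 0.15 on both plates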;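 note: plate controls were untreated wells for no effect and antibiotic for full effect; wells of about 80 µL received 100 nL stock; the first replicate is given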
Mtb hypoxia rep: inhibitors of hypoxia-regulated fluorescent reporter in Mycobacterium tuberculosis. AID 1159583. fluorescence inhibition, % (concentration not given with the values). M. tuberculosis hypoxia-regulated fluorescent reporter, fluorescence. 300,000 tested, 0.1% active;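 active = 35 to 45% if threefold the growth effect, above 45% if 1.5-fold the growth effect; inactive = the rest, general growth blockers included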;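 note: wells of about 50 µL received 100 nL stock; 0% = vehicle wells and 100% = reference inhibitor wells; whole bacteria with a GFP reporter of the hypoxia response; strong numbers were not always called active; many hits fall short of the cut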
Bead autofluor: compound fluorescence in toxin protease inhibitor counterscreen | 360,000 tested, 3.1% active | fluorescence intensity (no concentration beside the values) | compound autofluorescence counterscreen, microsphere flow cytometry; stronger effect = higher value;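 active = at least 3 SD above the mean of all compounds, about 16000 in these data; inconclusive = too few beads counted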;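 note: 100 nL of 1 mM stock went into each well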
Mtb hypoxia rep growth: also measured in Mtb hypoxia rep; calls as there; growth inhibition, %; measured here: M. tuberculosis growth (absorbance);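 0% = vehicle and 100% = reference antibiotic; read after six days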
Active calls of the source: *; ? = inconclusive; / = no result given; & = joins results of further samples.

mol | Mtb hypoxia rep | Mtb hypoxia rep growth | BJeLR lethal | PrP UTR inh | Sa RN4220 lethal | Bead autofluor | ugtP null kill
O=C(NN=Cc1ccc(O)cc1)c1ccncc1 | / | / | / | / | 0.0 | / | 2.4
CCOc1ccc(N(CC(=O)Nc2ccc(OC)cc2)S(=O)(=O)c2c(C)noc2C)cc1 | / | / | 6.6 | -4.6 | 6.1 | 4033 | 6.2
CC(=O)c1ccc2noc(-c3ccc(F)cc3)c2c1 | -11.0 | -3.0 | 4.4 | -24.4 | 3.7 | 4541 | -1.0
O=C(CSc1nnc(CNC(=O)c2cccs2)o1)NCCc1ccccc1 | / | / | -2.2 | -13.7 | -3.1 | 4333 | 11.8
O=C(CSc1nncn1-c1ccccc1F)NC1CCCCC1 | 9.4 | 0.2 | / | 0.4 | 2.7 | 5501 | 2.5
Cc1cc(C(=O)COC(=O)c2nc3nccc(C)n3n2)c(C)n1CC1CCCO1 (stereo unspecified) | 1.0 | 8.2 | 5.2 | -1.8 | 5.2 | ? | -2.3
COCc1cc(C)nc2sc(C(=O)Nc3ccc(C(=O)OC)cc3)c(N)c12 | 3.0 | 0.5 | -2.5 | -29.8 | 3.4 | 3332 | -2.4
Cc1cccc(NC(=O)c2cc3n(n2)C(C(F)(F)F)CC(C2CC2)N3)c1C (stereo unspecified) | 3.4 | 2.0 | -0.5 | -38.2 | 1.7 | 4281 | 1.0
COC(=O)Cn1c(=NC(=O)c2cc(OC)cc(OC)c2)sc2cc(OC)ccc21 | -7.5 | 3.9 | -4.0 | -1.8 | 4.2 | 2488 | 1.3
Cc1ccc(C(=O)ON=C(c2ccccc2)c2cccnc2)cc1 | -7.2 | 6.4 | / | / | -3.0 | / | 5.6
Cc1ccc2nc(-c3ccc(NC(=O)COC(=O)c4ccco4)cc3)sc2c1 | -5.8 | 1.3 | 7.4 | -6.3 | 0.9 | 2104 | -4.8
Oc1cccc(C=NNc2ccc(Cl)nn2)c1 | -8.9 | 2.7 | / | / | 6.1 | / | -7.4
CSc1ccc(/C=N/NC(=O)c2cccc(O)c2)cc1 | / | / | 7.4 | -56.3 | / | 4823 | /
CSCCC1NC(=O)N(CC(=O)Nc2ccc(-c3ccccc3)cc2)C1=O (stereo unspecified) | 9.6 | 0.2 | 0.3 | -12.9 | 4.1 | 3608 | 2.9
Cc1ccc2c(c1)nnn2C1CCN(CC(=O)Nc2ccccc2N2CCOCC2)CC1 | -0.7 | -3.0 | 9.1 | -5.4 | -3.4 | 11199 | -16.1
COc1ccc(OCc2nn3c(-c4ccco4)nnc3s2)cc1 | / | / | 2.7 | -24.2 | 1.5 | 2334 | -1.1
COCCNC(=O)Cn1cc(C(=S)N2CCOCC2)c2ccccc21 | 11.6 | 13.1 | -4.4 | -37.8 | 10.7 | 4342 | 4.6
COc1ccc(C=Nn2c(=O)[nH]c3c([nH]c4ccc(Cl)cc43)c2=O)cc1CN1CCCCC1 | 7.8 | 5.0 | / | / | 4.0 | / | 1.2
CCOc1ccc2[nH]c(C(=O)N/N=C/c3cc(OC)c(OC)c(OC)c3)cc2c1 | / | / | 2.6 | -12.0 | / | 3268 | /
Cc1ccc(NCc2nnc(SCC(=O)NCc3ccco3)n2CC2CCCO2)cc1Cl (stereo unspecified) | 2.5 | 2.3 | -10.0 | -5.4 | 0.3 | 4126 | -2.1
O=C1NC2(c3ccccc3)NC(=O)NC2(c2ccccc2)N1 (stereo unspecified) | 12.2 | 5.7 | / | -1.4 | 4.4 | 3255 | 2.7
CCCCN(c1ccccc1)S(=O)(=O)c1cccc(C(=O)Nc2c(C)n(C)n(-c3ccccc3)c2=O)c1 | 4.1 | 1.1 | / | 4.3 | 2.8 | ? | -1.4
CCOC(=O)Cn1c(=O)n(Cc2ccc(C)cc2)c(=O)c2cccnc21 | 6.6 | -3.8 | 4.8 | -10.2 | 3.2 | 3405 | 4.4
CC(C)CNC(=O)CSc1ccc(Cl)cc1 | / | / | -2.7 | -6.2 | 0.6 | 2703 | -1.0
Cc1onc(-c2ccccc2)c1C(=O)N/N=C/c1cn(C)c2ccccc12 | / | / | 5.6 | -10.8 | / | 4405 | /
CCOc1ccc(-c2cc(C(=O)N/N=C(\C)c3cccnc3)c3ccccc3n2)cc1 | / | / | 3.5 | -14.4 | / | 5786 | /
COC(CN(C)C(=O)c1cn(C)c2ccc(S(=O)(=O)N(C)C3CCCCC3)cc2c1=O)OC | 3.5 | 4.9 | -9.1 | -6.2 | 3.7 | 5964 | 4.7
CC(C)C(=O)NC(=S)N1CCc2ccccc21 | -4.4 | 5.4 | -3.9 | -15.5 | -0.4 | 2802 | 0.2
CCC(C)Sc1nc2c(cnn2-c2ccc(F)cc2)c(=O)[nH]1 (stereo unspecified) | 2.0 | -6.8 | -2.3 | -7.6 | 0.7 | 3441 | -6.4
O=C(N[C@@H](c1ccccc1)[C@H](O)c1ccccc1)[C@@H]1CCCN1C(=O)OCc1ccccc1 | / | / | -1.6 | -3.8 | / | 3051 | /
O=[N+]([O-])c1ccc(S(=O)(=O)NCCCc2ccccc2)cc1 | 8.1 | 17.8 | -5.1 | / | 14.0 | / | 8.4
CSc1ccc(/C=N/NC(=O)c2cccc(Cl)c2)cc1 | / | / | 1.2 | -81.6 | / | 2573 | /
c1ccc(N/N=C(\Cc2ncc[nH]2)c2ccccc2)cc1 | / | / | 3.1 | -12.0 | / | 4410 | /
O=c1[nH]c(C2CCCN(S(=O)(=O)c3cccc(F)c3)C2)nc2c1nnn2Cc1ccccc1 (stereo unspecified) | 2.7 | 13.8 | 0.9 | -23.3 | 2.7 | 6725 | -1.4
c1ccc(Cn2c(NCc3ccncc3)nc3ccccc32)cc1 | 4.8 | 3.9 | 3.0 | -26.4 | 3.4 | 5919 | -2.4
Cc1cc(Cl)ccc1NC(=S)NCc1ccc(S(N)(=O)=O)cc1 | 4.1 | 1.5 | 3.7 | -10.3 | 0.9 | 3569 | -2.7
CC(C)(C)NC(=O)C(=O)NCc1ccncc1 | 8.0 | 10.5 | -3.0 | -4.2 | 3.8 | 2056 | -3.0
CC(NC(=O)OCc1ccccc1)c1nnc(C(Cc2ccccc2)NC(=O)OC(C)(C)C)o1 (stereo unspecified) | 12.6 | 10.7 | / | / | 3.0 | / | 2.7
O=C(Nc1ccc(OCC(F)(F)C(F)F)c(C(F)(F)F)c1)c1ccccc1O | / | / | 13.9 | -28.7 | 111.6* | 3550 | 100.1*
CN(C(=O)COC(=O)c1cc(S(=O)(=O)N2CCOCC2)ccc1Cl)C1CCS(=O)(=O)C1 (stereo unspecified) | 4.7 | -2.5 | 3.4 | -9.4 | 0.5 | / | 5.1

Part of the list above, with values under each structure:
Sequence of screens – Mtb hypoxia rep	Mtb hypoxia rep growth	BJeLR lethal	PrP UTR inh	Sa RN4220 lethal	Bead autofluor	ugtP null kill
> CC(C)C(=O)NC(=S)N1CCc2ccccc21
    -4.4	5.4	-3.9	-15.5	-0.4	2802	0.2
> CCC(C)Sc1nc2c(cnn2-c2ccc(F)cc2)c(=O)[nH]1 (stereo unspecified)
    2.0	-6.8	-2.3	-7.6	0.7	3441	-6.4

(next part)
mol | Mtb hypoxia rep | Mtb hypoxia rep growth | BJeLR lethal | PrP UTR inh | Sa RN4220 lethal | Bead autofluor | ugtP null kill
CCc1nnc(NC(=O)CSc2nnc(COc3ccc(C)cc3)n2-c2ccccc2)s1 | 1.8 | 6.0 | -10.5 | -29.4 | 9.8 | 3267 | 4.1
O=C(Nc1ccccc1N1CCCC1)c1cc(Cl)ccc1Cl | 1.5 | 2.7 | -1.1 | -1.5 | 6.3 | 2126 | 7.7
CCC(=O)N1CCc2cc(S(=O)(=O)CCC(=O)N3CCN(c4ccc(Cl)cc4)CC3)ccc21 | -5.4 | -4.6 | -3.2 | -8.3 | 1.7 | 4779 | 1.9
CCCCn1c(SCC(=O)NC2CCCC2)nc2ccccc2c1=O | 5.9 | -1.5 | 8.8 | -15.0 | 2.3 | / | 1.9
COCCNC(=O)C(c1ccccc1)N(Cc1cccs1)C(=O)Cn1nnc2ccccc21 (stereo unspecified) | / | / | 18.2 | -4.0 | 2.2 | 3232 | 10.8
COC(=O)C1C(OC(=O)c2ccccc2)CC2CCC1N2C (stereo unspecified) | / | / | 1.0 | 6.0&18.2 | 5.1&2.0 | 4775&4135 | -7.1&-9.6
Cc1ccc(C)c(OCc2cc(C(=O)N3CCc4sccc4C3)no2)c1 | -3.0 | -5.8 | -3.9 | 0.6 | 3.6 | 4904 | 3.4
Cc1nn(CC(=O)Nc2ccc(Cl)cn2)c(C)c1Br | 6.5 | 3.9 | -0.7 | -4.5 | -0.3 | 2085 | 15.6
O=C(Nc1ccc(C(=O)N2CCCCC2)cc1)C1=CSCCO1 | -1.1 | 4.3 | -4.3 | -26.2 | 2.1 | 4085 | -1.4
CCN(Cc1ccccc1)C(=O)C1CCN(C/C(C)=C/c2ccccc2)CC1 | / | / | -4.6 | -0.8 | / | 2530 | /
Cc1nnc(NC(=O)C2CCCN(S(=O)(=O)c3ccccc3C(F)(F)F)C2)s1 (stereo unspecified) | / | / | -4.2 | -10.7 | -3.7 | 4923 | 0.3
CCOC(=O)c1ccc(Nc2cc3ccccc3c(=O)[nH]2)cc1 | -1.8 | 5.4 | 2.7 | -18.1 | 0.4 | 3744 | -14.7
CC1CCC(NC(=O)COC(=O)c2n[nH]c(=O)c3ccccc23)CC1 (stereo unspecified) | 5.6 | 0.0 | 1.1 | -13.6 | 1.2 | ? | 3.9
Cc1cc(C(=O)CSc2nc3ccccc3o2)c(C)n1CC1CCCO1 (stereo unspecified) | 15.2 | 13.3 | 19.2 | -54.2 | 4.9 | 2367 | -1.6
Cc1nnc(C)c2c(C)n(-c3ccc(Br)cc3)c(C)c12 | 5.3 | 6.1 | 3.7 | / | -4.3 | / | 1.7
CC(C)(C)C1COC(=O)C(Cc2ccc(F)cc2)CC=CCC(CC(=O)N(CCO)Cc2ccccc2)C(=O)N1 (stereo unspecified) | 8.2&-8.1&3.3 | 7.2&16.0&6.8 | / | / | 6.0&-4.8&-2.1 | / | -2.4&-0.4&0.1
Cc1cc(C)n(-c2nc3ccccc3c(=O)n2OCC(=O)N(C)C)n1 | / | / | 3.7 | 3.0 | -0.8 | 6019 | 0.9
CCCNC(=O)CC1Sc2ccccc2NC1=O (stereo unspecified) | 3.6 | 4.1 | -3.6 | -5.6 | 2.6 | 9870 | 4.1
COc1ccc(C(CNC(=O)COc2ccccc2C)N2CCCC2)cc1 (stereo unspecified) | 0.4 | -0.1 | 4.1 | -9.0 | 2.2 | ? | 2.3
CCN1CCN(CC(=O)c2c(C)n(Cc3ccccc3)c3ccc(OC)cc23)CC1 | 3.2 | 2.6 | -4.8 | -29.3 | -1.1 | 4405 | -8.2
Cc1cc(C)c(NC(=O)COC(=O)c2c(C)noc2C)c(Cl)c1 | 5.7 | -3.1 | / | -21.2 | 6.3 | 9107 | 0.8
Cc1nc(C)c(C(=O)OCC(=O)NCCc2ccc(S(N)(=O)=O)cc2)s1 | / | / | / | -20.7 | 2.8 | 4076 | 2.8
CCS(=O)c1ccccc1C(=O)O (stereo unspecified) | 3.5 | 1.8 | -0.5 | -17.9 | -2.5 | 3614 | 7.2
CC(C)(O)CCc1c(-c2ccc(O)cc2O)oc2c3c(cc(O)c2c1=O)OC(C)(C)C=C3 | / | / | -6.1 | -9.4 | -2.5 | 6514 | -3.7
C=C(C)C1CC=C(C)/C(=N/NC(=O)c2ccccc2[N+](=O)[O-])C1 (stereo unspecified) | / | / | 7.8 | -18.7 | / | 4905 | /
CCC(C)NC(=O)C1CCCN1S(=O)(=O)c1ccc(Cl)cc1 (stereo unspecified) | 11.9 | 8.8 | 7.1 | -20.6 | 6.4 | 10476 | 4.3
CSc1nc(-c2ccco2)cc(-c2ccccc2)c1C#N | / | / | -0.6 | -2.7 | -0.5 | 2511 | 7.6
CCCCn1c(=O)[nH]c(=O)c2c1nc(-c1ccc(-c3ccccc3)cc1)n2C | 4.0 | 1.6 | 5.5 | -17.7 | -0.2 | 5808 | -3.4
CN(C)/C=C/C(=O)c1cccc([N+](=O)[O-])c1 | 0.4 | 8.4 | 2.2 | -39.9 | 4.2 | 3993 | 6.1

From PubChem
